HIV Env fusion: HIV envelope-mediated fusion inhibition; HeLa-JRFL Env/CEM21 cell fusion, luciferase; inhibition, % at 12.3 µM; actives 1.1% (n = 360,000); AID 651610;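 active means mean replicate inhibition score of at least 50 and every replicate individually at or above 50; inconclusive means only one of the two criteria met; inactive means mean below 50 and not all replicates reaching 50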;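 further: 0% = plate neutral controls and 100% = maraviroc near 300 nM; one replicate is shown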
Numbers without * were called inactive; ? = inconclusive; [ ] = remark or other dose. An excerpt. The share of hits here may be higher or lower than overall.

SMILES	HIV Env fusion
CC(C)NC(=O)N(C)C[C@@H]1OCCCC[C@@H](C)Oc2ccc(N(C)C)cc2C(=O)N([C@@H](C)CO)C[C@H]1C	-12[16.7 µM]
COc1ccc(CNC(=O)C[C@@H]2CC[C@H]3[C@@H](COc4ccc(NC(=O)C(C)C)cc4C(=O)N3C)O2)cc1	-14[16.7 µM]
C[C@@H]1CN([C@@H](C)CO)C(=O)c2cc(NC(=O)C3CC3)ccc2O[C@@H]1CN(C)Cc1ccc(C(=O)O)cc1	-13[16.7 µM]
COc1ccc2c3c([nH]c2c1)[C@@H](CO)N(C(=O)Nc1ccc(F)cc1)CC31CN(S(=O)(=O)c2cn(C)cn2)C1	-1[16.7 µM]
C[C@@H]1CN([C@H](C)CO)C(=O)Cc2cc(NC(=O)Nc3ccc(C(F)(F)F)cc3)ccc2O[C@@H]1CN(C)S(C)(=O)=O	5[16.7 µM]
C[C@@H]1CN([C@H](C)CO)C(=O)c2cc(NC(=O)Nc3ccc(F)cc3)ccc2O[C@@H]1CN(C)C(=O)Nc1ccc2c(c1)OCO2	10[16.7 µM]
CN1C(=O)c2cc(NC(=O)c3cnccn3)ccc2OC[C@H]2O[C@@H](CC(=O)NCC3CCCCC3)CC[C@H]21	2[16.7 µM]
O=C(C[C@H]1CC[C@@H](NC(=O)C2CCC2)[C@H](CO)O1)NCC1CC1	10[16.7 µM]
Cc1[nH]c2ccccc2c1CC(=O)Nc1ccc(Nc2cccnc2)c(-c2cc(C(F)(F)F)cc(C(F)(F)F)c2)c1	-57
COC(=O)C1=C(C)N(C)C(=NCC2CC2)NC1c1ccc(Cl)cc1 (configuration not stated)	22
Cc1cc(S(=O)(=O)NC(=O)[C@H]2O[C@@H](n3ccc(=O)[nH]c3=O)[C@H](O)[C@@H]2O)ccc1Br	-22
C[C@@H]1CN([C@@H](C)CO)C(=O)c2cccc(NC(=O)c3cnccn3)c2O[C@@H]1CN(C)S(=O)(=O)c1ccc(F)cc1	-26[16.7 µM]
CO[C@@H]1CC[C@@H]2CCN(C)C(=O)[C@@H](C)N(C)C(=O)c3cccc(C#N)c3OC[C@@H]1O2	-12[16.7 µM]
CS(=O)(=O)Nc1ccc2c(c1)[C@H]1C[C@@H](CC(=O)NC3CCCC3)O[C@H](CO)[C@H]1O2	2[16.7 µM]
COCC(=O)N1CC2(CN(Cc3ccc(OC)cc3)C2)c2c([nH]c3cc(OC)ccc23)[C@@H]1CO	-25[16.7 µM]
C[C@H]1CN([C@@H](C)CO)C(=O)c2cc(C#CC3CC3)cnc2O[C@@H]1CN(C)C(=O)c1ccncc1	-22[16.7 µM]
CCCNC(=O)Nc1ccc2c(c1)OC[C@H](C)N(C(C)=O)C[C@@H](C)[C@@H](OC)CN(C)C2=O	3[16.7 µM]
COc1ccc2c3c(n(C)c2c1)[C@H](CO)N(C(C)=O)CC31CCN(C(=O)c2ccccc2)CC1	-14[16.7 µM]
COc1cc2c(cc1OC)C(C(=O)O)C(c1ccc3c(c1)OCO3)N(C)C2=O (configuration not stated)	-23
CO[C@@H]1CN(C)C(=O)c2cc(NC(=O)C3CC3)ccc2OC[C@H](C)N(C(=O)c2ccccc2F)C[C@@H]1C	-8[16.7 µM]
Cc1cc(C(=O)Nc2ccc3c(c2)C(=O)N(C)[C@@H]2CC[C@H](CC(=O)NC4CCCC4)O[C@@H]2CO3)no1	-3[16.7 µM]
COc1cccc(S(=O)(=O)Nc2ccc3c(c2)[C@@H]2C[C@H](CC(=O)NCc4ccc(Cl)cc4)O[C@@H](CO)[C@@H]2O3)c1	6[16.7 µM]
Cc1ccc(-c2ccc3c(c2)O[C@H](CN(C)Cc2cncnc2)[C@H](C)CN([C@H](C)CO)S3(=O)=O)cc1	-7[16.7 µM]
CC=Cc1ccc2n(c1=O)C[C@@H]1[C@@H](CO)[C@H](C(=O)N(C)C)N(CCC(F)(F)F)[C@H]21 (mixture of isomers)	-10[16.7 µM]
CN(C)Cc1cn(CC[C@@H]2CC[C@H](NC(=O)Cc3cccnc3)[C@H](CO)O2)nn1	-6[16.7 µM]
COCC(=O)Nc1ccc2c(c1)C(=O)N(C)[C@H]1CC[C@@H](CC(=O)N3CCc4ccccc4C3)O[C@H]1CO2	-2[16.7 µM]
CN1CCN(C(=O)C[C@@H]2CC[C@H]3[C@@H](COc4ccc(NC(=O)C5CCOCC5)cc4C(=O)N3C)O2)CC1	0[16.7 µM]
C[C@@H]1CN([C@@H](C)CO)C(=O)c2cc(NS(C)(=O)=O)ccc2O[C@H]1CN(C)Cc1ccc2c(c1)OCO2	-2[16.7 µM]
CN1CCN(C(=O)C[C@H]2C[C@@H]3c4cc(NC(=O)c5ccc6c(c5)OCO6)ccc4O[C@@H]3[C@H](CO)O2)CC1	16[16.7 µM]
O=C([C@H]1[C@H](CO)[C@H]2Cn3c(cccc3=O)[C@@H]1N2Cc1cccc(Cl)c1)N1CCOCC1	17[16.7 µM]

An excerpt from above in order of molecular weight, rising.
SMILES	HIV Env fusion
COc1cc2c(cc1OC)C(C(=O)O)C(c1ccc3c(c1)OCO3)N(C)C2=O (configuration not stated)	-23
CN(C)Cc1cn(CC[C@@H]2CC[C@H](NC(=O)Cc3cccnc3)[C@H](CO)O2)nn1	-6[16.7 µM]
CC=Cc1ccc2n(c1=O)C[C@@H]1[C@@H](CO)[C@H](C(=O)N(C)C)N(CCC(F)(F)F)[C@H]21 (mixture of isomers)	-10[16.7 µM]
O=C([C@H]1[C@H](CO)[C@H]2Cn3c(cccc3=O)[C@@H]1N2Cc1cccc(Cl)c1)N1CCOCC1	17[16.7 µM]
CCCNC(=O)Nc1ccc2c(c1)OC[C@H](C)N(C(C)=O)C[C@@H](C)[C@@H](OC)CN(C)C2=O	3[16.7 µM]
COc1ccc2c3c(n(C)c2c1)[C@H](CO)N(C(C)=O)CC31CCN(C(=O)c2ccccc2)CC1	-14[16.7 µM]
C[C@H]1CN([C@@H](C)CO)C(=O)c2cc(C#CC3CC3)cnc2O[C@@H]1CN(C)C(=O)c1ccncc1	-22[16.7 µM]
Cc1cc(C(=O)Nc2ccc3c(c2)C(=O)N(C)[C@@H]2CC[C@H](CC(=O)NC4CCCC4)O[C@@H]2CO3)no1	-3[16.7 µM]
CN1CCN(C(=O)C[C@H]2C[C@@H]3c4cc(NC(=O)c5ccc6c(c5)OCO6)ccc4O[C@@H]3[C@H](CO)O2)CC1	16[16.7 µM]
CO[C@@H]1CN(C)C(=O)c2cc(NC(=O)C3CC3)ccc2OC[C@H](C)N(C(=O)c2ccccc2F)C[C@@H]1C	-8[16.7 µM]
C[C@@H]1CN([C@@H](C)CO)C(=O)c2cc(NS(C)(=O)=O)ccc2O[C@H]1CN(C)Cc1ccc2c(c1)OCO2	-2[16.7 µM]
COc1cccc(S(=O)(=O)Nc2ccc3c(c2)[C@@H]2C[C@H](CC(=O)NCc4ccc(Cl)cc4)O[C@@H](CO)[C@@H]2O3)c1	6[16.7 µM]

Remaining list, next part.
SMILES	HIV Env fusion
Nc1[nH]c(C(=O)c2ccc(Br)cc2)c(-c2ccc(Cl)cc2)c1C(=O)NCCc1c[nH]c2ccccc12	11
CN1C(=O)c2cc(NC(=O)NC3CCCC3)ccc2OC[C@H]2O[C@@H](CC(=O)NCC3CC3)CC[C@H]21	5[16.7 µM]
CC(C)CC1NC(=O)c2cc(Cl)ccc2-n2c1nc1ccc(F)cc1c2=O (configuration not stated)	1
C[C@H](CO)N1C[C@H](C)[C@H](CN(C)C(=O)C2CCCCC2)Oc2ncc(C#Cc3ccccc3F)cc2C1=O	6[16.7 µM]
Cn1cnc(S(=O)(=O)N2C[C@H](O)COC[C@H]3O[C@@H](CC(=O)NCc4cccc(F)c4)CC[C@@H]32)c1	-16[16.7 µM]
C[C@H](NC(=O)C[C@H]1CC[C@@H]2[C@H](COc3ccc(NS(=O)(=O)c4ccc(Cl)cc4)cc3C(=O)N2C)O1)c1ccccc1	-24[16.7 µM]
COC(=O)C1=C(C)N(Cc2ccccc2)C(=S)NC1c1cccc(OC)c1 (configuration not stated)	-18
Cc1cccc(OCCCN2CCC(C(O)(c3ccccc3)c3ccccc3)CC2)c1	8
O=C(Nc1ccc2c(c1)[C@H]1C[C@H](CC(=O)N3CCOCC3)O[C@H](CO)[C@H]1O2)Nc1ccccc1F	-10[16.7 µM]
COc1cccc(S(=O)(=O)N(C)C[C@H]2Oc3cc(C4=CCCCC4)ccc3S(=O)(=O)N([C@@H](C)CO)C[C@@H]2C)c1	40[16.7 µM]
CN1C(=O)c2cc(NC(=O)c3cccs3)ccc2OC[C@H]2O[C@@H](CC(=O)N3CCCCC3)CC[C@@H]21	9[16.7 µM]
CN1C(=O)c2cc(NC(=O)Nc3ccc(Cl)cc3)ccc2OC[C@@H]2O[C@H](CC(=O)NCCN3CCCCC3)CC[C@H]21	-30[16.7 µM]
Cc1ccc(S(=O)(=O)N(C)C[C@H]2Oc3ccc(NS(=O)(=O)c4cn(C)cn4)cc3C(=O)N([C@@H](C)CO)C[C@@H]2C)cc1	0[16.7 µM]
CCCCS(=O)(=O)N1CCCc2nc(-c3ccc(Br)cc3)ccc21	-10
O=C(O)C[C@@H]1C[C@@H]2c3cc(NC(=O)Nc4ccc(C(F)(F)F)cc4)ccc3O[C@@H]2[C@@H](CO)O1	26[16.7 µM]
C[C@H]1CN([C@@H](C)CO)C(=O)c2ccccc2-c2ccccc2CO[C@H]1CN(C)C(=O)Nc1ccc(F)cc1	15[16.7 µM]
CN1CCCCC(NC(=O)C23CC4CC(CC(C4)C2)C3)C1=O (configuration not stated)	13
COC(=O)CC#C[C@H](C)[C@@H](NS(=O)(=O)c1ccc(C)cc1)C1CCCCC1	-3
CC(C)NC(=O)N(C)C[C@@H]1OCCCC[C@@H](C)Oc2ccc(NC(=O)Nc3ccccc3)cc2C(=O)N([C@@H](C)CO)C[C@@H]1C	18[16.7 µM]
COc1ccc(C2CC(=O)C(c3ccc(C(C)=O)cc3)=CN2Cc2ccccc2)cc1 (configuration not stated)	-30
Cc1noc(C)c1NC(=O)Nc1ccc2c(c1)C(=O)N([C@@H](C)CO)C[C@@H](C)[C@@H](CN(C)S(=O)(=O)c1ccccc1)O2	9[16.7 µM]
CN1C(=O)c2cc(NS(=O)(=O)c3cccc(F)c3)ccc2OC[C@H]2O[C@@H](CC(=O)NCCN3CCCCC3)CC[C@H]21	?
C[C@H](CO)N1C[C@H](C)[C@H](CN(C)S(=O)(=O)c2ccc(F)cc2)Oc2ncc(C#Cc3ccc(F)cc3)cc2C1=O	10[16.7 µM]
O=S1(=O)C=C(Sc2ccc(Cl)cc2)c2ccccc2C1Cc1ccc(F)cc1 (configuration not stated)	39
CCS(=O)(=O)Nc1ccc2c(c1)C(=O)N(C)[C@@H]1CC[C@H](CC(=O)N3CCN(C)CC3)O[C@@H]1CO2	3[16.7 µM]
O=C(C[C@@H]1C[C@@H]2c3cc(NC(=O)Nc4ccc(C(F)(F)F)cc4)ccc3O[C@@H]2[C@H](CO)O1)NCc1ccc(Cl)cc1	24[16.7 µM]
CO[C@H]1CC[C@H]2CCOc3c(C#N)cccc3C(=O)N(C)[C@H](C)C(=O)N(C)C[C@H]1O2	2[16.7 µM]
CCCC[C@@H](O)C1=C(COC)C[C@H]2C(=O)N(Cc3ccccc3)C(=O)[C@H]2[C@H]1CO	-12[16.7 µM]
Cc1noc(C)c1NC(=O)Nc1ccc2c(c1)CC(=O)N([C@@H](C)CO)C[C@@H](C)[C@H](CN(C)Cc1ccc(-c3ccccc3)cc1)O2	-25[16.7 µM]
CO[C@@H]1CN(C)C(=O)c2cc(NC(=O)NC(C)C)ccc2OC[C@H](C)N(CC2CC2)C[C@@H]1C	-7[16.7 µM]
CCS(=O)(=O)Nc1ccc2c(c1)C(=O)N(C)[C@H]1CC[C@H](CC(=O)NCCOC)O[C@H]1CO2	1[16.7 µM]
CC(C)[C@H](C)NC(=O)N(C)C[C@@H]1OCc2ccccc2-c2ccccc2C(=O)N([C@@H](C)CO)C[C@H]1C	-1[16.7 µM]
C[C@H](NC(=O)C[C@@H]1C[C@H]2c3cc(NC(=O)NC4CCCCC4)ccc3O[C@H]2[C@@H](CO)O1)c1ccccc1	0[16.7 µM]
C[C@@H]1CN([C@H](C)CO)C(=O)c2cc(NC(=O)c3ccccc3)ccc2O[C@@H](C)CCCCO[C@@H]1CN(C)Cc1ccncc1	2[16.7 µM]
Cc1nn(C)cc1NC(=O)C[C@@H]1CC[C@@H]2[C@@H](COc3ccc(NC(=O)c4cccc(F)c4)cc3C(=O)N2C)O1	-5[16.7 µM]
CO[C@@H]1CC[C@H]2CCOc3ccc(C#N)cc3C(=O)N(C)[C@@H](C)C(=O)N(C)C[C@@H]1O2	24[16.7 µM]
COc1cccc(S(=O)(=O)N(C)C[C@@H]2OCc3ccccc3-c3ccccc3C(=O)N([C@@H](C)CO)C[C@@H]2C)c1	33[16.7 µM]
O=C([C@@H]1[C@@H](CO)[C@@H]2Cn3c(ccc(-c4ccncc4)c3=O)[C@@H]2N1Cc1cocn1)N1CCCCC1	12[16.7 µM]
Cc1cc(N2CCNC[C@@H]2C)ccc1N1C[C@@H](C)O[C@@H](C)C1	-6
CCCN(C)C[C@H]1OCCCC[C@H](C)Oc2ccc(NS(C)(=O)=O)cc2C(=O)N([C@H](C)CO)C[C@H]1C	-10[16.7 µM]
COc1ccc(NC(=O)N(C)C[C@@H]2OCc3cn(nn3)CCCC(=O)N([C@H](C)CO)C[C@@H]2C)cc1	5[16.7 µM]
CO[C@@H]1CN(C)C(=O)c2cc(NS(=O)(=O)c3c(C)noc3C)ccc2OC[C@H](C)NC[C@@H]1C	11[16.7 µM]
O=C(N[C@H]1CC[C@H](CCNS(=O)(=O)Cc2ccccc2)O[C@H]1CO)c1cnccn1	-18[16.7 µM]
CN(C)CC(=O)N1CC2(C1)[C@@H](c1ccccc1)[C@@H](CO)N2C(=O)C1CCCC1	10[16.7 µM]
CCCNC(=O)Nc1ccc2c(c1)C(=O)N(C)C[C@@H](OC)[C@@H](C)CN(Cc1ccc(-c3ccccn3)cc1)[C@H](C)CO2	-5[16.7 µM]
COC(=O)[C@]12C[C@H](CC(=O)NCc3cccs3)C(=O)N(Cc3ccc4c(c3)OCO4)C1=C[C@H](C(C)(C)C)O[C@@H]2C	10
CC(=O)C1=C(C)N(Cc2ccc(Br)cc2)C(=S)NC1c1cccc(Cl)c1 (configuration not stated)	70*

Compound activity: PubChem BioAssay, Broad Institute
